Yeast UUG start = modulators of start codon recognition fidelity in yeast. activity score, % at 18.7 µM. 0.13% of 350,000 active. S. cerevisiae UUG-firefly luciferase reporter, luminescence/redox ratio;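 active = replicate mean at a twofold rise or more, about +100% in these data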;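 also: firefly luciferase made from a UUG start codon reports start codon fidelity; reporter light over untreated wells divided by growth signal over untreated wells; some hits fall short of that in this replicate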
HIV Env fusion = inhibitors of HIV Env-mediated cell fusion | HeLa-JRFL Env/CEM21 cell fusion, luciferase | inhibition, % at 12.3 µM | 1.1% of 360,000 active;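 active = mean replicate inhibition score of at least 50 and every replicate individually at or above 50; inconclusive = only one of the two criteria met; inactive = mean below 50 and not all replicates reaching 50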;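 also: 0% = plate neutral controls and 100% = maraviroc near 300 nM; one replicate is shown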
Numbers without * were called inactive; [ ] = dose if it differs, or a comment. This is a subset; rates above refer to the full screens.

What do the screens show for `CCC(=O)N(C)C[C@H]1Oc2ncc(C#C[C@@H](C)O)cc2C(=O)N([C@H](C)CO)C[C@H]1C`?
Yeast UUG start: 0; HIV Env fusion: 9[16.7 µM]

Results for C[C@@H]1CN([C@@H](C)CO)C(=O)Cc2cc(NC(=O)NC3CCCCC3)ccc2O[C@@H]1CN(C)S(=O)(=O)c1cccs1 ?
Yeast UUG start: 16; HIV Env fusion: 20[16.7 µM]

Results for CCCN1C[C@@H](C)[C@@H](OC)CN(C)C(=O)c2ccc(NC(=O)c3cccc(OC)c3)cc2OC[C@@H]1C ?
Yeast UUG start: -1; HIV Env fusion: 4[16.7 µM]

What do the screens show for `C[C@@H]1CN([C@@H](C)CO)C(=O)c2cccc(NC(=O)Nc3ccc4c(c3)OCO4)c2O[C@@H]1CN(C)Cc1ccc(C(F)(F)F)cc1`?
Yeast UUG start: 8; HIV Env fusion: -60[16.7 µM]

Results for C[C@H](CO)N1C[C@H](C)[C@@H](CN(C)C)Oc2ncc(C#Cc3ccccc3F)cc2C1=O ?
Yeast UUG start: 9; HIV Env fusion: 0[16.7 µM]

Results for C[C@H](CO)N1C[C@H](C)[C@@H](CN(C)Cc2ccc(-c3ccccc3)cc2)Oc2ccc(NC(=O)Nc3ccc4c(c3)OCO4)cc2CC1=O ?
Yeast UUG start: -3; HIV Env fusion: 9[16.7 µM]

How did C[C@@H]1CN([C@@H](C)CO)C(=O)Cc2cc(NC(=O)Cc3cn(C)c4ccccc34)ccc2O[C@@H]1CN(C)Cc1ccc(Cl)c(Cl)c1 do in these assays?
Yeast UUG start: 41; HIV Env fusion: -105[16.7 µM]

What do the screens show for `C[C@@H]1CN([C@@H](C)CO)S(=O)(=O)c2ccc(-c3ccncc3)cc2O[C@@H]1CN(C)C(=O)C1CCCCC1`?
Yeast UUG start: -16; HIV Env fusion: 24[16.7 µM]

How did C[C@@H]1CCCCO[C@H](CN(C)Cc2ccc(Cl)c(Cl)c2)[C@H](C)CN([C@@H](C)CO)C(=O)c2cc(NC(=O)Cc3ccccc3)ccc2O1 do in these assays?
Yeast UUG start: 1; HIV Env fusion: -2[16.7 µM]

What do the screens show for `C[C@H](CO)N1C[C@H](C)[C@@H](CN(C)C)Oc2cc(C#C[C@@H](C)O)ccc2S1(=O)=O`?
Yeast UUG start: -16; HIV Env fusion: 2[16.7 µM]

What do the screens show for `CCCN(C)C[C@@H]1Oc2ncc(-c3cccc(C#N)c3)cc2C(=O)N([C@H](C)CO)C[C@@H]1C`?
Yeast UUG start: -13; HIV Env fusion: 12[16.7 µM]

Results for O=C(NCC[C@H]1CC[C@H](NC(=O)Nc2cc(F)ccc2F)[C@@H](CO)O1)Nc1ccc(F)cc1 ?
Yeast UUG start: -3; HIV Env fusion: -11[16.7 µM]

What do the screens show for `C[C@H](CO)N1C[C@H](C)[C@@H](CN(C)S(C)(=O)=O)OCCCC[C@H](C)Oc2ccc(NC(=O)C3CCCCC3)cc2C1=O`?
Yeast UUG start: -12; HIV Env fusion: -1[16.7 µM]

Results for Cc1noc(C)c1S(=O)(=O)Nc1ccc2c(c1)C(=O)N([C@@H](C)CO)C[C@H](C)[C@@H](CN(C)C(=O)c1ccccc1)OCCCC[C@H](C)O2 ?
Yeast UUG start: 4; HIV Env fusion: -8[16.7 µM]

How did CN1C(=O)c2cc(NC(=O)c3ccc(F)cc3)ccc2OC[C@H]2O[C@@H](CC(=O)NCC3CCCCC3)CC[C@@H]21 do in these assays?
Yeast UUG start: 17; HIV Env fusion: 11[16.7 µM]

Results for CC(C)NC(=O)N(C)C[C@@H]1Oc2ccc(NS(C)(=O)=O)cc2C(=O)N([C@@H](C)CO)C[C@@H]1C ?
Yeast UUG start: -13; HIV Env fusion: 20[16.7 µM]

What do the screens show for `C[C@H]1CN([C@@H](C)CO)S(=O)(=O)c2ccc(C#Cc3cccnc3)cc2O[C@@H]1CN(C)C`?
Yeast UUG start: -11; HIV Env fusion: -1[16.7 µM]

How did CC(C)NC(=O)N(C)C[C@@H]1Oc2cc(C#Cc3cccc(F)c3)ccc2S(=O)(=O)N([C@@H](C)CO)C[C@@H]1C do in these assays?
Yeast UUG start: 21; HIV Env fusion: 25[16.7 µM]

Results for C[C@@H]1CCCCO[C@H](CN(C)C(=O)Nc2ccc(C(F)(F)F)cc2)[C@H](C)CN([C@@H](C)CO)C(=O)c2cc(N(C)C)ccc2O1 ?
Yeast UUG start: 7; HIV Env fusion: 35[16.7 µM]

Results for COc1ccc(NC(=O)Nc2ccc3c(c2)C(=O)N([C@@H](C)CO)C[C@@H](C)[C@@H](CN(C)C(=O)Nc2ccc4c(c2)OCO4)OCCCC[C@@H](C)O3)cc1 ?
Yeast UUG start: -1; HIV Env fusion: 3[16.7 µM]

How did C[C@H](CO)N1C[C@H](C)[C@@H](CN(C)C(=O)c2ccccn2)Oc2ncc(C#Cc3ccccn3)cc2C1=O do in these assays?
Yeast UUG start: 17; HIV Env fusion: 7[16.7 µM]

How did CO[C@H]1CN(C)C(=O)c2ccc(NS(=O)(=O)c3c(C)noc3C)cc2OC[C@@H](C)NC[C@H]1C do in these assays?
Yeast UUG start: 0; HIV Env fusion: 2[16.7 µM]

How did C[C@@H]1CN([C@H](C)CO)C(=O)c2cc(NC(=O)CCC(F)(F)F)ccc2O[C@@H](C)CCCCO[C@@H]1CN(C)C(=O)Cc1ccccc1 do in these assays?
Yeast UUG start: 7; HIV Env fusion: -7[16.7 µM]

How did C[C@H](CO)N1C[C@H](C)[C@@H](CN(C)C(=O)Nc2cccc3ccccc23)Oc2ccc(NS(=O)(=O)c3ccccc3)cc2C1=O do in these assays?
Yeast UUG start: 7; HIV Env fusion: -11[16.7 µM]

Results for CCC(=O)N(C)C[C@H]1Oc2cc(-c3ccc(OC)cc3)ccc2S(=O)(=O)N([C@@H](C)CO)C[C@H]1C ?
Yeast UUG start: 8; HIV Env fusion: 8[16.7 µM]

What do the screens show for `C[C@H]1CN([C@@H](C)CO)C(=O)c2cc(NC(=O)c3ccncc3)ccc2O[C@@H]1CN(C)CC1CCCCC1`?
Yeast UUG start: -7; HIV Env fusion: -50[16.7 µM]

How did CCC(=O)N(C)C[C@@H]1Oc2cc(-c3cccc(OC)c3)ccc2S(=O)(=O)N([C@@H](C)CO)C[C@H]1C do in these assays?
Yeast UUG start: 9; HIV Env fusion: -10[16.7 µM]

Results for C[C@@H]1CN([C@H](C)CO)C(=O)c2cc(NS(=O)(=O)c3ccc(F)cc3)ccc2O[C@@H](C)CCCCO[C@H]1CN(C)Cc1ccncc1 ?
Yeast UUG start: -2; HIV Env fusion: -11[16.7 µM]

How did COCC#Cc1ccc2c(c1)O[C@@H](CN(C)C(=O)COC)[C@@H](C)CN([C@@H](C)CO)S2(=O)=O do in these assays?
Yeast UUG start: 11; HIV Env fusion: -20[16.7 µM]

Results for COc1ccc(S(=O)(=O)Nc2ccc3c(c2)C(=O)N([C@@H](C)CO)C[C@@H](C)[C@H](CN(C)C(=O)Nc2cccc4ccccc24)OCCCC[C@H](C)O3)cc1 ?
Yeast UUG start: -2; HIV Env fusion: 13[16.7 µM]

A section of the results above:
Results for CC(C)NC(=O)N(C)C[C@@H]1Oc2ccc(NS(C)(=O)=O)cc2C(=O)N([C@@H](C)CO)C[C@@H]1C ?
Yeast UUG start: -13; HIV Env fusion: 20[16.7 µM]

What do the screens show for `C[C@H]1CN([C@@H](C)CO)S(=O)(=O)c2ccc(C#Cc3cccnc3)cc2O[C@@H]1CN(C)C`?
Yeast UUG start: -11; HIV Env fusion: -1[16.7 µM]

How did CC(C)NC(=O)N(C)C[C@@H]1Oc2cc(C#Cc3cccc(F)c3)ccc2S(=O)(=O)N([C@@H](C)CO)C[C@@H]1C do in these assays?
Yeast UUG start: 21; HIV Env fusion: 25[16.7 µM]

Results for C[C@@H]1CCCCO[C@H](CN(C)C(=O)Nc2ccc(C(F)(F)F)cc2)[C@H](C)CN([C@@H](C)CO)C(=O)c2cc(N(C)C)ccc2O1 ?
Yeast UUG start: 7; HIV Env fusion: 35[16.7 µM]

Next compounds:
Results for C[C@@H]1CN([C@@H](C)CO)C(=O)c2cc(NC(=O)c3ccncc3)ccc2O[C@@H](C)CCCCO[C@@H]1CN(C)C(=O)c1ccccc1 ?
Yeast UUG start: -3; HIV Env fusion: -6[16.7 µM]

What do the screens show for `COc1ccc(S(=O)(=O)N(C)C[C@H]2Oc3ccc(NC(=O)Nc4c(C)noc4C)cc3CC(=O)N([C@H](C)CO)C[C@H]2C)cc1`?
Yeast UUG start: -8; HIV Env fusion: -9[16.7 µM]

How did COc1ccc(NC(=O)Nc2cccc3c2O[C@@H](CN(C)Cc2ccc(C(=O)Nc4ccccc4N)cc2)[C@H](C)CN([C@H](C)CO)C3=O)cc1 do in these assays?
Yeast UUG start: 3; HIV Env fusion: -16[16.7 µM]

Results for CNC[C@@H]1Oc2ccc(NC(=O)Cc3ccccc3)cc2C(=O)N([C@@H](C)CO)C[C@H]1C ?
Yeast UUG start: -8; HIV Env fusion: -12[16.7 µM]

What do the screens show for `C[C@H](CO)N1C[C@H](C)[C@@H](CN(C)C(=O)Nc2cccc3ccccc23)Oc2ccc(NC(=O)NC3CCCCC3)cc2C1=O`?
Yeast UUG start: 8; HIV Env fusion: inconclusive

Results for CC(C)C#Cc1cnc2c(c1)C(=O)N([C@@H](C)CO)C[C@@H](C)[C@@H](CN(C)C(=O)C1CCC1)O2 ?
Yeast UUG start: -1; HIV Env fusion: 12[16.7 µM]

How did NC(COCc1ccccc1)c1csc(Nc2cc(Oc3ccccc3)ncn2)n1 (stereo not drawn) do in these assays?
Yeast UUG start: -7; HIV Env fusion: 2

Results for C[C@@H]1CN([C@H](C)CO)C(=O)c2cc(NS(=O)(=O)c3ccc(Cl)cc3)ccc2O[C@@H](C)CCCCO[C@H]1CN(C)S(=O)(=O)c1cccs1 ?
Yeast UUG start: 7; HIV Env fusion: 63*[16.7 µM]

How did C[C@H](CO)N1C[C@H](C)[C@H](CN(C)C(=O)C2CCC2)Oc2cc(-c3cncnc3)ccc2S1(=O)=O do in these assays?
Yeast UUG start: -3; HIV Env fusion: 11[16.7 µM]

What do the screens show for `C[C@H](CO)N1C[C@H](C)[C@@H](CN(C)S(=O)(=O)c2cn(C)cn2)OCCCC[C@H](C)Oc2ccc(NC(=O)Nc3ccc(C(F)(F)F)cc3)cc2C1=O`?
Yeast UUG start: -12; HIV Env fusion: -2[16.7 µM]

How did CNC[C@@H]1Oc2c(NC(=O)c3cnccn3)cccc2C(=O)N([C@H](C)CO)C[C@@H]1C do in these assays?
Yeast UUG start: 0; HIV Env fusion: 0[16.7 µM]

What do the screens show for `COc1ccc(C#Cc2cnc3c(c2)C(=O)N([C@@H](C)CO)C[C@@H](C)[C@@H](CN(C)C(=O)Nc2cccc(OC)c2)O3)cc1`?
Yeast UUG start: -4; HIV Env fusion: 12[16.7 µM]

How did COCCOC(=O)N1C(=O)[C@@]2(c3cc(C#CC4=CCCCC4)ccc31)[C@H](c1ccccc1OCCO)N1[C@H](c3ccccc3)[C@H](c3ccccc3)OC(=O)[C@H]1[C@@H]2C(=O)NC[C@H](O)c1ccccc1 do in these assays?
Yeast UUG start: -14; HIV Env fusion: -3[16.7 µM]

Results for COc1ccc(C#Cc2ccc3c(c2)O[C@@H](CN(C)C)[C@@H](C)CN([C@H](C)CO)S3(=O)=O)cc1 ?
Yeast UUG start: -4; HIV Env fusion: -8[16.7 µM]

Results for Cc1noc(C)c1NC(=O)N(C)C[C@@H]1OCCCC[C@H](C)Oc2ccc(NC(=O)c3ccccc3)cc2C(=O)N([C@H](C)CO)C[C@@H]1C ?
Yeast UUG start: -3; HIV Env fusion: -1[16.7 µM]

How did COc1ccc(S(=O)(=O)N(C)C[C@H]2Oc3ccc(NS(=O)(=O)c4ccccc4)cc3C(=O)N([C@@H](C)CO)C[C@H]2C)cc1 do in these assays?
Yeast UUG start: 3; HIV Env fusion: -9[16.7 µM]

What do the screens show for `C[C@H]1CN([C@@H](C)CO)C(=O)c2cc(C#CCN(C)C)cnc2O[C@H]1CN(C)Cc1ccc(C(=O)O)cc1`?
Yeast UUG start: 3; HIV Env fusion: 17[16.7 µM]

Results for COc1ccc(S(=O)(=O)Nc2ccc3c(c2)CC(=O)N([C@H](C)CO)C[C@@H](C)[C@H](CN(C)Cc2ccc(C(F)(F)F)cc2)O3)cc1 ?
Yeast UUG start: 5; HIV Env fusion: 21[16.7 µM]

How did C[C@H](CO)N1C[C@H](C)[C@H](CN(C)Cc2ccc(-c3ccccc3)cc2)Oc2ccc(NS(=O)(=O)c3ccc(Cl)cc3)cc2C1=O do in these assays?
Yeast UUG start: -6; HIV Env fusion: -13[16.7 µM]

How did O=C(C[C@H]1C[C@H]2c3cc(NS(=O)(=O)c4ccc(F)cc4)ccc3O[C@H]2[C@@H](CO)O1)NCc1ccccc1F do in these assays?
Yeast UUG start: 9; HIV Env fusion: 83*[16.7 µM]

How did O=C(Nc1ccc(F)cc1)N[C@@H]1CC[C@H](CCNC(=O)c2cc(Cl)cc(Cl)c2)O[C@H]1CO do in these assays?
Yeast UUG start: 8; HIV Env fusion: -9[16.7 µM]

What do the screens show for `C[C@@H]1CN([C@H](C)CO)C(=O)c2cc(NC(=O)C3CCCCC3)ccc2O[C@@H](C)CCCCO[C@@H]1CN(C)S(=O)(=O)c1cn(C)cn1`?
Yeast UUG start: -10; HIV Env fusion: 11[16.7 µM]
